TRPML1 inh: qHTS for Inhibitors of the Human Mucolipin Transient Receptor Potential 1 (TRPML1); Mucolipin-1 (Homo sapiens), Q9GZU1; TRPML1-inducible cells, Ca2+ dye fluorescence, FDSS; hits give low values; inhibition of EC80 agonist-evoked calcium signal; activity change, negative = inhibition, % (test concentration not listed); 390,000 compounds, 0.02% hits; AID 624415, 2012; in the data active means activity change below about -50%; inconclusive means about -30% to -50%; inactive means above about -30%;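 also: stimulus is agonist 54-4 at its EC80 concentration; % is scaled to controls: 0 for no effect and ±100 for the full control effect; compound concentration not given in the record; the text of the record puts the active cut at -80%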
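TRPML1-DL cells, Tet-induced overnight (~16 h, 37 °C) at 1,500 cells/well, were loaded with Ca8 no-wash dye plus quencher for 45-90 min at room temperature. Compounds were pinned during FDSS kinetic reading; agonist 54-4 at EC80 (4 uM final) then added.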
D2 PAM: Beta-Arrestin HTS for Positive Allosteric Modulators of the Human D2 Dopamine Receptor: Potentiators. DiscoveRx D2 beta-arrestin cells, luminescence, 90 min; 100% = 57 uM dopamine signal. potentiation, % (concentration not given with the values). 360,000 compounds, 0.23% hits; active = potentiation of 50% or more; inconclusive = 30% to 50%; inactive = 30% or less;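 also: tested on top of an EC20 dose of dopamine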
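PathHunter D2 cells, attached overnight at 37 deg C, received compound in DMSO plus dopamine at EC20 (50 nM final) for 90 min at 37 deg C. Beta-arrestin recruitment was read as luminescence after 1 h with detection reagent at ambient temperature.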
TRPML1 agonist: qHTS for Agonists of the Human Mucolipin Transient Receptor Potential 1 (TRPML1); Mucolipin-1 (Homo sapiens), Q9GZU1; TRPML1-expressing cells, Ca2+ dye fluorescence, FDSS; host cell line not named in the record; reference of the full effect not given here; activation, % (no concentration beside the values); 410,000 compounds, 0.12% hits; in the data active = activation above about 50%; inconclusive = about 30% to 50%; inactive = below about 30%; also: 0% is about no effect; the text of the record puts the active cut at 80%
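Cells: TRPML1-DL, 1X Tet inducer, ~16 h at 37 degrees C/5% CO2. Dye: ABD Ca8 no-wash + quencher, 45-90 min RT. Read: 10 s baseline, compound add, 110 s agonist phase; 54-4 EC80 (4uM final), 110 s antagonist phase.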
CtBP-E1A inh: qHTS Assay for Inhibitors of the CtBP/E1A Interaction; CtBP / adenovirus E1A interaction (AlphaScreen); AlphaScreen GST-E1A/His-CtBP binding, 1536-well; hits give low values; control for the full effect not named in the record; activity change, % (test concentration not listed); 340,000 compounds, 0.49% hits; AID 651724, 2012; in the data active means activity change below about -65%; inconclusive means about -30% to -65%; inactive means above about -30%; also: % is scaled to controls: 0 for no effect and ±100 for the full control effect
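Homogeneous bead-based format: GST-tagged E1A captured on glutathione donor beads, His-tagged CtBP on nickel acceptor beads; compounds precede bead addition by 2 h at 37 °C.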
TRPV1 potentiator: HTS Assay for Compounds that Act as Potentiators of the Vanilloid Receptor 1; potentiation, % at 8.33 µM; 320,000 compounds, 0.02% hits; TRPV1-expressing cells, Fluo-8 calcium influx, capsaicin EC20 potentiation; host cell line not named in the record; control for the full effect not named in the record; AID 540277, 2011; active means potentiation above 80%; inconclusive means 30% to 80%; inactive means below 30%; also: 0% is about no effect
Target sequence (Q8NER1 whole entry, looked up): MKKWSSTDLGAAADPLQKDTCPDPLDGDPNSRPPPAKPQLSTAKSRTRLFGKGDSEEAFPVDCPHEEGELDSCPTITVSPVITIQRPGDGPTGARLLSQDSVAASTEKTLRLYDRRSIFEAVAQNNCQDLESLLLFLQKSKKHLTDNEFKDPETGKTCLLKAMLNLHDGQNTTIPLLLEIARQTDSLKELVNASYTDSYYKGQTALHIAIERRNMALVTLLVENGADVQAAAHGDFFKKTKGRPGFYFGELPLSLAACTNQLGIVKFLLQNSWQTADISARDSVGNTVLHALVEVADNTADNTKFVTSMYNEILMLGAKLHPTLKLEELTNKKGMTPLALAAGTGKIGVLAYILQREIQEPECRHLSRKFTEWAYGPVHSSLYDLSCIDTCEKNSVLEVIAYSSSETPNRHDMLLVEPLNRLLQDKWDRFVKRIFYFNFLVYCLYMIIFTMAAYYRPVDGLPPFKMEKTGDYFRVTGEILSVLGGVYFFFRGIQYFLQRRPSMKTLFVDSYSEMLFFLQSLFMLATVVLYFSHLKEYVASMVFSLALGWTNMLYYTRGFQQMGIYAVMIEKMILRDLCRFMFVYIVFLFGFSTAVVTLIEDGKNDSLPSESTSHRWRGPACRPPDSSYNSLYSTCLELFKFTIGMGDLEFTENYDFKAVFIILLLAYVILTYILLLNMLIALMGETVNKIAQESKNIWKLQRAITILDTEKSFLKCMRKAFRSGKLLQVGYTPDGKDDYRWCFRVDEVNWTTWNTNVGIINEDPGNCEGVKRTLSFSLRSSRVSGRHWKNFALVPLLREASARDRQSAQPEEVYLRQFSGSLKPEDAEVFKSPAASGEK
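Cells expressing TRPV1 were dye-loaded with Fluo-8 and read kinetically: 10 s baseline, 3 min after compound (agonist portion), then 2 min after EC20 capsaicin (allosteric enhancer portion). Calcium-bound dye fluorescence at 480/520 nm.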
Six1-Eya2 blk: qHTS Assay for Inhibitors of the Six1/Eya2 Interaction. Homeobox protein SIX1 (Homo sapiens) + Protein phosphatase EYA2 (Homo sapiens), …. AlphaScreen GST-Six1/His-Eya2 binding, biochemical; hits give low values; control for the full effect not named in the record. activity change, % (concentration not given with the values). 360,000 compounds, 0.56% hits. AID 651725, 2012; in the data active = activity change below about -65%; inconclusive = about -30% to -65%; inactive = above about -30%; also: % is scaled to controls: 0 for no effect and ±100 for the full control effect
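AlphaScreen with GST-Six1 and His-Eya2 (5X mix: 250 nM and 500 nM), glutathione donor and nickel acceptor beads; buffer 50 mM Tris pH 8.0, 300 mM NaCl, 1 mM TCEP; 1 h at 37 C in the dark.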
* = called active by the depositor; ? = inconclusive; . = no result given.

SMILES	TRPML1 inh	D2 PAM	TRPML1 agonist	CtBP-E1A inh	TRPV1 potentiator	Six1-Eya2 blk
CSCCC(C(=O)N(C)CC(=O)Nc1cccc(F)c1)N1C(=O)c2ccccc2C1=O (centres undefined)	1	-1	1.8	-14	-11	4
COc1cc(NC(=O)COC(=O)c2cc(S(=O)(=O)N3CCOCC3)ccc2F)cc(OC)c1	-3	-4	0.4	-2	.	-4
Nc1nc(-c2cccnc2)nc(N2CCCCC2)n1	34	10	1.3	4	2	-1
Cc1ccc(SCC(=O)Nc2cccc(S(=O)(=O)N3CCOCC3)c2)cc1C	-20	-4	0.9	?	-1	-28
O=C(O)c1ccc(Nc2nc(-c3cc4ccccc4oc3=O)cs2)cc1O	2	-5	-0.8	-3	-4	-15
O=C(CSc1nnc2c(n1)[nH]c1ccc(S(=O)(=O)N3CCOCC3)cc12)Nc1ccccc1Cl	-1	-4	0.5	4	9	-16
COc1cccc(/C=N/NC(=O)CNC(=O)CCc2ccccc2)c1O	-20	-15	-0.4	.	3	-69*
CCOc1ccc(NC(=O)CN2CCC(n3cnc4cc(F)ccc43)CC2)cc1	-8	-6	0.8	2	-6	5
O=S(=O)(Nc1ccccn1)c1ccc(C(F)(F)F)cc1Cl	23	-11	0.0	-8	5	8
Cc1ccc(CNC(=O)Cc2nc3nc(C)cc(C)n3n2)cc1	68	-3	0.1	-2	2	-19
COc1ccc(C(C[N+](=O)[O-])c2c(-c3ccccc3)cc3ccccn23)c(OC)c1 (centres undefined)	0	0	3.7	-6	16	-20
Cc1nnsc1C(=O)NC(=O)Nc1ccc(F)c(Cl)c1	-21	-7	-0.7	13	-25	3
CSc1nccc(Oc2cccc(C#N)c2)n1	2	-6	-0.5	-11	4	-1
CCOC(=O)c1cc2oc(C(c3nnnn3C3CCCCC3)N3CCOCC3)cc2[nH]1 (centres undefined)	-4	-11	22	2	0	-8
CSCCC(C(=O)Nc1ccc2c(c1)OCO2)N1C(=O)c2ccccc2C1=O (centres undefined)	40	2	0.2	-6	.	-3
Cc1ccc(C)c(NC(=O)CCn2nc(C)cc2C)c1	43	-4	0.0	4	1	11
Cc1ccc(Cl)cc1NC(=O)NCc1cccnc1	-19	-31	0.5	1	5	0
CCN(CC)C(=O)CCS(=O)(=O)c1cccc2nonc12	7	5	-0.2	3	-7	0
C=CCNC(=O)/C(=C/c1cn(-c2ccccc2)nc1-c1cccc([N+](=O)[O-])c1)NC(=O)c1ccccc1	20	-11	2.1	-5	?	3
O=C(NCc1ccco1)C(c1ccccc1)N(Cc1ccccc1)C(=O)Cn1nnc2ccccc21 (centres undefined)	2	-54	1.5	-13	-14	-21
O=C(NCc1cccc(C(F)(F)F)c1)C1CC(c2ccccc2F)=NO1 (centres undefined)	34	-20	-0.5	.	.	-1
CC(C)CCNC(=O)NC(=O)CSc1ncccn1	3	-4	2.3	.	6	0
Cc1cccc(N(Cc2ccccc2)C(=O)CN2C(=O)NC3(CCCC3)C2=O)c1	6	-3	-0.2	.	-17	4
CN(C)S(=O)(=O)N1CCc2ccc(NC(=O)c3ccc(C(F)(F)F)cc3)cc2C1	1	-3	0.7	0	3	6
NC(=O)C1CCN(Cc2nc(-c3ccccc3)no2)CC1	16	-7	0.0	5	-6	5
COC(=O)Cc1[nH]c(=O)[nH]c1C(=O)OC	9	0	-0.3	9	-8	13
CN(C)CCNC(=O)/C(=C/c1ccc(-c2ccc(Cl)cc2Cl)o1)NC(=O)c1ccccc1	7	-27	0.8	-10	14	1
O=C1NC(N2CCOCC2)=N/C1=C/c1ccc2c(c1)OCO2	-9	-13	0.0	5	2	8
O=C(c1ccc(F)cc1)C1CCN(C(=O)NCc2ccccc2)CC1	5	-2	4.5	3	-14	2
O=C1Nc2ccccc2CN2C(=O)c3cc(Cl)ccc3NC(=O)C12 (centres undefined)	.	-10	-0.8	-4	.	10
CCOC(=O)/C=C1/SCC(=O)N1CC(=O)Nc1ccccc1OC(F)F	9	-2	-0.3	1	.	-2
CCNC(=O)C1(C)CCN(C(=O)c2ccc(F)cc2Cl)C1 (centres undefined)	.	-6	-0.2	2	.	2
COC(=O)Cn1ccnc1[N+](=O)[O-]	18	-8	0.0	-23	.	6
O=C(CC1NCCc2ccccc21)Nc1ccc(Cl)cc1 (centres undefined)	-7	-22	0.5	12	?	7
O=C(CN(CCO)c1ccccc1)NC12CC3CC(CC(C3)C1)C2	1	-18	0.2	-1	-5	-6
CCCS(=O)(=O)N1CCCC(C(=O)NCCc2cccc(C)c2)C1 (centres undefined)	16	0	0.6	0	6	2
COc1ccc(Br)cc1C1NC(=O)c2c(sc3c2CCN(C)C3)N1 (centres undefined)	15	-17	-0.2	4	-2	4
CC(C)C[C@H]1CNC(=O)C(=O)N1CC1CCN(CC2CCC(C(C)(C)C)CC2)CC1 (some centres undefined)	-1	-15	-0.6	5	.	-1
CCOc1ccccc1NC(=O)CCN1CCN(S(=O)(=O)c2ccc(Br)cc2)CC1	0	-17	0.0	-1	3	9
CN1CCC(N(C)C(=O)c2sc3cc(F)ccc3c2Cl)CC1	-4	-16	0.6	2	6	9
COc1ccc(C(=O)C2CCCN(C(=O)c3cccnc3OC)C2)cc1F (centres undefined)	34	-7	2.1	9	13	3
CCOc1cc(/C=C2/SC(=O)N(CC(=O)N3CCc4ccccc4C3)C2=O)ccc1OCC(=O)O	5	-4	1.4	-12	-2	4
O=C(COC(=O)/C=C/C(=O)OCC(=O)NC12CC3CC(CC(C3)C1)C2)NC12CC3CC(CC(C3)C1)C2	23	-16	0.1	7	3	3
Cc1ccc(OCCNC(=O)[C@H]2O[C@@H](n3cnc4c(N)ncnc43)[C@H](O)[C@@H]2O)cc1C	-15	-4	0.9	-6	.	11
COc1cc(/C=N/c2oc(-c3ccccc3)cc2C#N)ccc1O	15	-4	1.8	-3	-1	-12
CCOC(=O)COc1ccc(C2CC(C)=NN2c2ccccc2)cc1 (centres undefined)	19	-2	1.4	1	7	-5
COc1ccccc1C(C)NC(=O)c1ccc(S(=O)(=O)NCc2ccco2)cc1 (centres undefined)	-1	-17	0.0	-14	.	-13
CCn1c(=O)cc(SCC(=O)Nc2ccc3c(c2)OCCO3)c2ccccc21	2	-20	3.2	-27	-5	-18
CCOC1=C2[C@H](c3ccc(Cl)cc3)N(S(=O)(=O)c3ccc(C)cc3)C[C@H]2n2c(=O)n(-c3ccccc3)c(=O)n2C1	15	-3	0.2	11	.	-1
Cn1c(NC(=O)/C=C/c2ccco2)cc(=O)n(C)c1=O	-3	-21	-0.4	-12	3	-24

Some of the entries so far, field by field.
COc1cc(/C=N/c2oc(-c3ccccc3)cc2C#N)ccc1O
  TRPML1 inh = 15
  D2 PAM = -4
  TRPML1 agonist = 1.8
  CtBP-E1A inh = -3
  TRPV1 potentiator = -1
  Six1-Eya2 blk = -12

CCOc1ccccc1NC(=O)CCN1CCN(S(=O)(=O)c2ccc(Br)cc2)CC1
  TRPML1 inh = 0
  D2 PAM = -17
  TRPML1 agonist = 0.0
  CtBP-E1A inh = -1
  TRPV1 potentiator = 3
  Six1-Eya2 blk = 9

Six1-Eya2 blk, what is marked active above.
Molecule,TRPML1 inh,D2 PAM,CtBP-E1A inh,Six1-Eya2 blk
COc1cccc(/C=N/NC(=O)CNC(=O)CCc2ccccc2)c1O,-20,-15,.,-69*

Other records follow.
SMILES	TRPML1 inh	D2 PAM	TRPML1 agonist	CtBP-E1A inh	TRPV1 potentiator	Six1-Eya2 blk
O=C(NCCCN1CCOCC1)c1cnccn1	15	-3	-0.1	-5	3	1
CCCN(Cc1ccccc1)C(=S)Nc1ccc(OCC)cc1	-4	-2	1.8	-2	11	-2
CCCn1c(N)c(N2CCCCC2)c(=O)n(CC(=O)Nc2ccccc2C)c1=O	4	-21	-0.5	-4	-12	1
COc1ccc(CCNC(=O)C(=O)c2cn(CC(=O)N3CCOCC3)c3ccccc23)cc1OC	9	-4	-0.9	-3	3	1
COc1cc(C(=O)OCC(=O)Nc2ccc(S(=O)(=O)N3CCCC3)cc2)cc(OC)c1OC	7	-4	0.0	-16	.	-12
Nc1cc(=O)nc(SCC(=O)N2CCN(c3ccccc3)CC2)n1-c1ccccc1	9	-9	0.8	3	-4	-3
O=C(COc1ccccc1Cl)NCCC1=CCCCC1	-1	-21	1.6	27	-3	11
O=C(c1cccs1)N1CCN(C(=O)C(c2ccccc2)c2ccccc2)CC1	-5	0	-1.4	3	6	0
CN(C)C(CNC(=O)c1ccc(NS(=O)(=O)c2ccc(F)c(F)c2)cc1)c1ccccc1 (centres undefined)	20	-22	0.3	-2	10	5
CCCCNC(=O)C1(C)CCN1C(=O)c1ccc(OC)c(C(F)(F)F)c1 (centres undefined)	12	-13	0.1	-5	.	5
CC(=O)OC(Cn1nc(C)cc1C)c1ccccc1 (centres undefined)	-9	3	1.8	5	1	3
CCC(=O)Nc1ccc(Br)cn1	-4	-5	0.4	-2	-5	6
CS(=O)(=O)N(CC(=O)NCCSCc1cccc(Cl)c1)c1ccc2c(c1)OCO2	-5	-20	3.8	-2	-7	-7
Cc1ccc(CN2CCN(C(=O)c3cccc4ccccc34)CC2)cc1	-11	-13	-0.3	1	-18	-4
O=C(N/N=C/c1cc2cc3c(cc2nc1Cl)OCCO3)c1ccccc1O	6	-15	1.5	29	1	13
COc1ccc(S(=O)(=O)NCCN2CCNC2=O)cc1OC	18	-3	0.9	6	8	-3
CC1CCCN(c2nc3c(c(=O)n(C)c(=O)n3C)n2Cc2ccccc2)C1 (centres undefined)	19	0	2.9	-19	-2	-5
Cc1cccc(C(=O)Nc2ccc(C(=O)N/N=C/c3ccco3)cc2)c1	6	-4	0.0	-3	.	-11
Cc1ccc(Nc2cnn(C34CC5CC(CC(CC(=O)O)(C5)C3)C4)c(=O)c2Cl)cc1C	-3	9	0.1	12	1	0
Cn1ccnc1-c1ccc(-c2nccn2C)cc1	-5	-3	0.3	-4	4	0

Single records (already shown):
CCCn1c(N)c(N2CCCCC2)c(=O)n(CC(=O)Nc2ccccc2C)c1=O across the screens: TRPML1 inh = 4; D2 PAM = -21; TRPML1 agonist = -0.5; CtBP-E1A inh = -4; TRPV1 potentiator = -12; Six1-Eya2 blk = 1
CC1CCCN(c2nc3c(c(=O)n(C)c(=O)n3C)n2Cc2ccccc2)C1 (centres undefined) across the screens: TRPML1 inh = 19; D2 PAM = 0; TRPML1 agonist = 2.9; CtBP-E1A inh = -19; TRPV1 potentiator = -2; Six1-Eya2 blk = -5
CN(C)C(CNC(=O)c1ccc(NS(=O)(=O)c2ccc(F)c(F)c2)cc1)c1ccccc1 (centres undefined) across the screens: TRPML1 inh = 20; D2 PAM = -22; TRPML1 agonist = 0.3; CtBP-E1A inh = -2; TRPV1 potentiator = 10; Six1-Eya2 blk = 5
